Screening results from PubChem BioAssay.
D2 ag = human D2 receptor agonism in beta-arrestin assay | P14416 | DiscoveRx PathHunter D2 beta-arrestin, luminescence, 90 min; 100% = 57 uM dopamine signal | activation, % (no concentration beside the values) | hit rate 0.084% among 360,000 | AID 624465; in the data active = activation above about 40%; inconclusive = about 15% to 40%; inactive = below about 15%; note: compound concentration not given in the record; the text of the record calls up to 30% inactive
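Agonist mode: compounds alone added to overnight-plated D2 PathHunter cells for 90 min at 37 C, with 57 uM final dopamine (EC100) defining full response. Beta-arrestin recruitment detected by chemiluminescent reagent, read after 1 h at ambient temperature.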
CtBP-E1A blk = blocks the CtBP interaction with E1A; AID 651724; activity change, % (no concentration beside the values); AlphaScreen GST-E1A/His-CtBP binding, 1536-well; hits give low values; control for the full effect not named in the record; hit rate 0.49% among 340,000; in the data active means activity change below about -65%; inconclusive means about -30% to -65%; inactive means above about -30%; note: % is set by controls: 0 for no effect and ±100 for the full control effect; compound concentration not given in the record
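Protein mix (5X: 125 nM each GST-E1A, His-CtBP) was incubated with pinned compound 2 h at 37 deg C in dark, in 50 mM Tris pH 8.0 buffer with 300 mM NaCl. Glutathione donor and nickel acceptor beads followed; AlphaScreen signal read after 1 h.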
TRPV1 PAM = potentiators of human vanilloid receptor 1 (TRPV1); hit rate 0.02% among 320,000; Q8NER1; TRPV1-expressing cells, Fluo-8 calcium influx, capsaicin EC20 potentiation; host cell line not named in the record; control for the full effect not named in the record; AID 540277; potentiation, % at 8.33 µM; active means potentiation above 80%; inconclusive means 30% to 80%; inactive means below 30%; note: 0% is about no effect
Target sequence (Q8NER1 whole entry, looked up): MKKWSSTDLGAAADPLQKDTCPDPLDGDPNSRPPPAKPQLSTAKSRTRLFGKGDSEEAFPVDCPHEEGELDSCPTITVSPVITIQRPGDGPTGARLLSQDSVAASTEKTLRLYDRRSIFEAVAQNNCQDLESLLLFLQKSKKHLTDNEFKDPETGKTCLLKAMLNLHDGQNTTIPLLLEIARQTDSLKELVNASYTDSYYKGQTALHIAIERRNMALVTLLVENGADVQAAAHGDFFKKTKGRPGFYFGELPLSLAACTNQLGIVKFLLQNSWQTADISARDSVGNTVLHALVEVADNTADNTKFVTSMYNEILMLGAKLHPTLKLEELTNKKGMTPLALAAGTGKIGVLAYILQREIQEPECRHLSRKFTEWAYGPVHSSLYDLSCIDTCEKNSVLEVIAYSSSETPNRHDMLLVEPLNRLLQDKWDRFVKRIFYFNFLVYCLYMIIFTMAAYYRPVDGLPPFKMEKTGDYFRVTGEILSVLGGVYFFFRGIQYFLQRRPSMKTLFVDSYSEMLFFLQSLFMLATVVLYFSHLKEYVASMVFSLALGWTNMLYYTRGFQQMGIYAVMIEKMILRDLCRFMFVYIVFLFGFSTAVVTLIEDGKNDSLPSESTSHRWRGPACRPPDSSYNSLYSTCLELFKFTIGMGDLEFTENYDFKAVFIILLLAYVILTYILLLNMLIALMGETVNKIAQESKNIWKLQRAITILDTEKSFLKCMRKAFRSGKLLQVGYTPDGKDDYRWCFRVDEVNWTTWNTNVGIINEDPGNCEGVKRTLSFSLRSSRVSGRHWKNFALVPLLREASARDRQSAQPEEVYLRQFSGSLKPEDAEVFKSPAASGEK
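Fluo-8 calcium influx in TRPV1-expressing cells, kinetic read (ex 480/em 520 nm). Compound added and read 3 min for agonist activity, followed by capsaicin at EC20 final and 2 min further read for enhancement.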
PINK1 expr mod = PINK1 expression modulation; Potency, µM (series often up to 76.6 µM), for inactives: at the top dose activation (PINK1 increase), most hits filed as activators; PINK1 immunofluorescence, high-content cytometry, 24 h; hit rate 0.2% among 410,000; AID 624263; active = well fitted activation curve with a large enough effect; inconclusive = small, poorly fitted or top-dose-only effect; inactive = flat fitted curve, though single readings scatter; cell line not stated here;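 note: potency is the fitted concentration of half-maximal effect; % of control where 0% means no effect; nearly all actives have a fitted effect of over 65% in size; a mitochondrial uncoupler was the plate control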
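PINK1 protein level read as immunofluorescence by microplate cytometer in a fixed, stained stable cell line after 24 h exposure to five compound concentrations, with CCCP as control.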
D2 PAM = positive allosteric modulators of human D2 dopamine receptor; hit rate 0.23% among 360,000; potentiation, % (no concentration beside the values); DiscoveRx D2 beta-arrestin cells, luminescence, 90 min; 100% = 57 uM dopamine signal; P14416; active = potentiation of 50% or more; inconclusive = 30% to 50%; inactive = 30% or less;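 note: compound concentration not given in the record; tested on top of an EC20 dose of dopamine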
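D2 cells co-treated with compound plus 50 nM dopamine (EC20) for 90 min at 37 deg C to detect potentiation. Beta-arrestin recruitment was read as enzyme-fragment luminescence after 1 h at ambient temperature. Full response was set by 57 uM dopamine.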
Sfp PPTase inh = Sfp phosphopantetheinyl transferase inhibition; AID 1490; Biochemical Sfp PPTase activity, qHTS; hit rate 3.5% among 310,000; Potency, µM, without a hit: max response, negative = inhibition, usual class: inhibitors; active = well fitted inhibition curve with a large enough effect; inconclusive = small, poorly fitted or top-dose-only effect, or another doubt; inactive = no such curve, though single readings can be large or run the other way;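 note: the enzyme is Sfp with the accession as filed and its product quenches rhodamine fluorescence; potency is the fitted concentration of half-maximal effect; 0% = enzyme reaction without inhibitor and -100% = no enzyme wells; top concentration of the series not given in the record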
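After 15 min at room temperature with compound, 15 nM Sfp received 5 uM rhodamine-CoA plus 12.5 uM BHQ-2-ybbR (50 mM Hepes pH 7.6, 10 mM MgCl2). Rate came from the fluorescence difference over 30 min, ex 525/em 598 nm.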
Six1-Eya2 inh = inhibitors of human Six1/Eya2 interaction; AID 651725; Q15475+O00167; hit rate 0.56% among 360,000; activity change, % (test concentration not listed); AlphaScreen GST-Six1/His-Eya2 binding, biochemical; hits give low values; control for the full effect not named in the record; in the data active = activity change below about -65%; inconclusive = about -30% to -65%; inactive = above about -30%; note: % is set by controls: 0 for no effect and ±100 for the full control effect; compound concentration not given in the record
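Six1/Eya2 binding was read as AlphaScreen signal after compounds were pinned into GST-Six1 plus His-tagged Eya2 (5X stock 250/500 nM) in pH 8.0 Tris/NaCl/TCEP buffer, beads added, then incubated 1 h, 37 C, dark.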
* marks the source's active call; other numbers are inactive results; ? = inconclusive; · = no result given; & = joins results of further samples; [ ] = another dose, or the depositor's remark. No enrichment for hits, and some 3.7% of all compounds hit somewhere here.

SMILES | D2 ag | CtBP-E1A blk | TRPV1 PAM | PINK1 expr mod | D2 PAM | Sfp PPTase inh | Six1-Eya2 inh
Cc1cc2c(ccc3c2no[n+]3[O-])nn1 | -2.7 | 2.7 | 1.3 | 1.3% | 23.2 | 0.7% | -3.2
O=C(Nc1ccccc1F)N1CCc2ccccc2C1 | -2.8 | 1.9 | -10.3 | 1.6% | -6.5 | 11.3% | 9.5
CC1CCCC(C)N1C(=O)COC(=O)CSc1ccc([N+](=O)[O-])cc1 (centres undefined) | 9.4 | 2.0 | 1.5 | 6.1% | 3.2 | · | -4.3
CCOC(=O)C(C(=O)OCC)C1OC(=O)c2cc3c(cc21)C(=O)OC3C(C(=O)OCC)C(=O)OCC (centres undefined) | 1.9 | · | 4.5 | -0.4% | -0.2 | 8.9% | -9.6
CC(=O)N1CCOc2ccc(S(=O)(=O)N3CCC(C(=O)Nc4ccc(C)cc4)CC3)cc21 | -1.8 | 0.8 | 13.3 | 1.3% | -15.3 | 12.1% | -2.0
COc1ccccc1N1CCN(C(=O)C(=O)c2cn(CC(=O)N3CCOCC3)c3ccccc23)CC1 | 0.8 | -17.0 | 26.5 | 0.6% | -18.0 | 11.2% | -1.2
COc1ccc(S(=O)(=O)N2CCOCC2)cc1NC(=O)CCc1nc2ccccc2c(=O)[nH]1 | -0.5 | -23.3 | -5.5 | -2.1% | -1.5 | -24.6% | -18.4
CN(C)c1ccc(NC(=O)c2cn(-c3ccccc3)nc2-c2cccs2)cc1 | 1.6 | ? | -0.5 | 2.5% | -8.5 | -5.3% | ?
CC(C)(C)c1nc(NCCN2CCOCC2)c2nnn(Cc3ccccc3Cl)c2n1 | 1.6 | 2.8 | -18.3 | 12.3%[38.3 µM] | 2.7 | 4.2% | -1.1
CC(NC(=O)CN(C)Cc1ccc(Br)cc1)c1ccccc1 (centres undefined) | -1.0 | · | -3.9 | 3.2% | -5.9 | 5.0% | -1.0
Cn1nnc2cc(C(=O)NC3CC3)ccc21 | -0.9 | 1.5 | 11.6 | 1.5% | 3.1 | -25.9% | 9.3
[N-]=[N+]=NC[C@H](Cc1ccccc1)N1CC[C@@H](OCc2ccccc2)CCC1=O | 3.0 | -2.3 | -10.9 | 1.1% | -32.2 | 0.1% | 5.8
CN1C(=O)/C(=C2/C=Cc3ccccc3N2CCCS(=O)(=O)O)SC1=S | -11.0 | -15.3 | -0.4 | -3.0% | -31.6 | -17.3% | -20.0
Cc1ccc(CNC(=O)c2ccc3c(c2)S(=O)(=O)c2ccccc2C3=O)cc1 | 1.0 | -10.2 | · | 3.5% | -2.8 | · | -14.9
Cn1nnc(NCc2cc(Br)ccc2OCc2ccccc2F)n1 | 0.4 | -14.6 | -4.4 | 0.2% | 0.1 | 20.0% | 2.7
CN(C)CC(=O)c1c(N)n(Cc2ccccc2)c(=O)n(C)c1=O | -3.3 | 0.0 | 1.9 | 1.6% | 7.9 | 5.6% | 15.2
CCC(C)C(Nc1ncnc2scc(-c3ccccc3)c12)C(=O)O (centres undefined) | 5.5 | -6.8 | 10.7 | 3.4% | -1.8 | 22.8% | 8.0
O=C(CCS(=O)(=O)c1ccccc1)Nc1ccccc1N1CCOCC1 | -2.5 | -19.0 | ? | 0.1% | -2.8 | 25.4% | -7.9
C=CCn1c(SCC(=O)Nc2cc(C)on2)nnc1-c1ccncc1 | -0.4 | 0.2 | · | -1.3% | -1.7 | · | 2.7
O=c1c2[nH]c3cccc(Cl)c3c2ncn1CCN1CCCCC1 | 2.0 | 7.5 | 6.1 | 8.3% | -18.3 | 10.9% | -4.7
CCCNc1c(NC(=O)c2cccs2)c(=O)oc2ccccc12 | 2.3 | -12.0 | 1.1 | -0.5% | -10.5 | -2.1% | 7.8
CN1CCN(NC(=O)Nc2cc(Cl)cc(Cl)c2)CC1 | -0.8 | 1.2 | 0.3 | ? | -16.2 | 1.7% | -4.1
CS(=O)(=O)N1CCc2cc(C(=O)N3CCN(c4ccccc4F)CC3)ccc21 | 6.3 | 0.0 | -27.0 | -0.7%&0.2% | -15.6 | 2.5% | -10.7
O=C(CN1CCOCC1)Nc1cccc(Br)c1 | -2.3 | -1.6 | -6.0 | 12.7%[38.3 µM] | -17.7 | 7.3% | 1.9
O=C(CSC1=NCCN1)C1COc2ccccc2O1 (centres undefined) | -0.3 | -3.3 | -1.5 | -2.6%[38.3 µM] | -6.7 | -29.5% | 0.7
CCOc1ccc(C(=O)SC2=NCCS2)cc1 | 1.4 | 9.8 | 2.8 | · | 3.8 | 15.2% | 3.7
O=C(CCCn1c(=O)[nH]c2cc(Cl)ccc2c1=O)NCCC1=CCCCC1 | -2.3 | 2.1 | -0.3 | 0.1% | -9.2 | 19.0% | -0.1
COC[C@H](NS(=O)(=O)c1ccc(Br)cc1F)[C@@H](O)c1ccccc1 | -1.4 | -3.0 | · | -0.6% | -2.1 | · | 8.1
OC(c1ccc2c(c1)OCO2)c1ncc(-c2ccc(Cl)cc2)[nH]1 (centres undefined) | -4.3 | -12.0 | · | 0.1% | -9.4 | · | -8.0
CC(C)N1CC2(CC(c3ccccc3F)=NO2)CN1C(=O)c1ccco1 (centres undefined) | -0.8 | -12.9 | · | 0.8% | 4.7 | · | 3.6
O=C(COc1cccnc1[N+](=O)[O-])Nc1cc(Cl)ccc1Cl | -2.0 | -1.4 | · | 0.6% | -4.6 | · | 7.2
Cc1ccc(S(=O)(=O)N2CCCCC2)cc1NC(=O)c1cc2ccccc2o1 | 2.9 | -8.3 | 7.5 | 0.2% | -0.7 | · | -11.7
Cc1cc(=O)oc2cc(OCC(=O)NC3CCCC3)ccc12 | 1.4 | 2.1 | 1.6 | 0.0% | -2.5 | 11.5% | 0.1
CCc1cc2c(SCC(=O)NC3CCCC3)ncnc2s1 | -2.5 | 2.5 | · | 0.7% | -11.7 | · | 1.5
CCN(CC)CCOC(=O)c1ccccc1Br | -3.9 | -12.3 | 3.9 | 2.3% | -10.6 | 5.2% | 1.1
Cc1ccsc1/C=N/NC(=O)Nc1ccccc1 | -1.5 | -10.4 | 11.6 | 0.9% | -16.6 | 13.1% | 0.1
Cc1ccc(C)c(NS(=O)(=O)c2cc(C(=O)NCc3ccccn3)ccc2C)c1 | 2.9 | -0.2 | -8.5 | 3.9% | 8.1 | 11.0% | -2.2
O=C(Nc1ccc(C(=O)N2CCCC2)cc1)Nc1ccc(Cl)cc1Cl | -5.9 | 13.8 | -11.4 | 16.3% | -8.7 | 6.1% | 7.5
c1ccc(Cc2nnc3sc(C4COc5ccccc5O4)nn23)cc1 (centres undefined) | -0.8 | 0.1 | -12.7 | -4.2%[38.3 µM] | 7.3 | ? | -1.7
COc1ccc(C(CC(=O)NCCCN2CCOCC2)NS(=O)(=O)c2ccc(C)cc2)cc1 (centres undefined) | 0.6 | 2.0 | -6.9 | 0.9% | -11.9 | 1.4% | -0.6
CCOC(=O)C1=NN(C(=O)c2ccccc2)C(O)(c2ccc(C)cc2)C1 (centres undefined) | -7.1 | -2.1 | -4.7 | 0.3% | -3.9 | 0.9% | 2.4
Cc1cccc(OCCCC(=O)Nc2ccc(N(C)C)cc2)c1 | 1.1 | -26.4 | -2.0 | 1.2% | -9.8 | -0.4% | ?
Cc1ccc(NC(=O)Cn2c(=O)c3cccn3c3ccccc32)c(C)c1 | 4.4 | 4.8 | 4.1 | -0.1% | 0.5 | -17.5% | 1.7
CN(C(=O)CNc1ccccc1Cl)C1CCS(=O)(=O)C1 (centres undefined) | -3.6 | 1.0 | · | -1.1% | -1.6 | · | 2.1
Cc1c(C(=O)Nc2ccccc2[N+](=O)[O-])csc1-c1ccccc1 | 4.1 | ? | 7.5 | 2.2% | -19.7 | 0.5% | ?
Cc1ccccc1-c1cc2nc(Nc3ccc(F)cc3)n(C)c(=O)c2s1 | 0.7 | 2.6 | · | 1.6% | -1.6 | · | -4.2
COc1ccccc1OCCNC(=O)c1ccco1 | -4.8 | 10.5 | 7.9 | -0.5% | -2.5 | 9.1% | 5.7
COc1ccc(NS(=O)(=O)c2ccc(C)c(C(=O)NCc3cccnc3)c2)cc1 | -0.4 | -4.7 | 16.0 | -0.1% | 25.0 | 0.4% | -4.4

Just CtBP-E1A blk and D2 PAM (three entries from above):
Compound | CtBP-E1A blk | D2 PAM
c1ccc(Cc2nnc3sc(C4COc5ccccc5O4)nn23)cc1 (centres undefined) | 0.1 | 7.3
Cc1ccc(C)c(NS(=O)(=O)c2cc(C(=O)NCc3ccccn3)ccc2C)c1 | -0.2 | 8.1
CN(C(=O)CNc1ccccc1Cl)C1CCS(=O)(=O)C1 (centres undefined) | 1.0 | -1.6

Continued.
SMILES | D2 ag | CtBP-E1A blk | TRPV1 PAM | PINK1 expr mod | D2 PAM | Sfp PPTase inh | Six1-Eya2 inh
CCn1nc(CC(=O)Nc2ccc(-n3cnnn3)c(OC)c2)c2ccccc2c1=O | 1.2 | 3.1 | 5.6 | -0.2% | -22.9 | 15.5% | -2.3
COc1ccc(-n2c(SCC(=O)NCCCN3CCCC3=O)nnc2C(C)N2CCCCC2)cc1 (centres undefined) | -8.8 | -17.9 | 1.8 | 1.3% | -2.0 | 29.7% | -8.5
Cc1ccccc1N1CCN(S(=O)(=O)c2ccccc2)CC1 | -1.1 | 3.7 | ? | 0.5%&-3.1% | 2.3 | -3.7% | 6.8
CN(C(=O)CCNC(=O)Cn1cnc2ccccc2c1=O)c1ccc(F)cc1 | -2.2 | 5.6 | 9.2 | -0.6% | -7.4 | 8.6% | 0.5
C[C@@H](C(=O)Nc1nc2ccccc2s1)N1C(=O)C2CC=CCC2C1=O (some centres undefined) | -3.2 | 5.4 | -0.3 | -0.3% | -2.8 | 12.3% | -2.0
COc1cc(OC)nc(Nc2nc(C(C)N)cs2)n1 (centres undefined) | -6.7 | ? | · | 0.9% | -16.4 | · | ?

Record cards, from the list above. Screens in order: D2 ag	CtBP-E1A blk	TRPV1 PAM	PINK1 expr mod	D2 PAM	Sfp PPTase inh	Six1-Eya2 inh
COc1ccc(-n2c(SCC(=O)NCCCN3CCCC3=O)nnc2C(C)N2CCCCC2)cc1 (centres undefined) as listed: -8.8	-17.9	1.8	1.3%	-2.0	29.7%	-8.5
COc1cc(OC)nc(Nc2nc(C(C)N)cs2)n1 (centres undefined) as listed: -6.7	?	·	0.9%	-16.4	·	?
CN(C(=O)CCNC(=O)Cn1cnc2ccccc2c1=O)c1ccc(F)cc1 as listed: -2.2	5.6	9.2	-0.6%	-7.4	8.6%	0.5
